Bioassay records: PubChem BioAssay, National Center for Advancing Translational Sciences (NCATS)
Cruzain noTriton: qHTS Assay for Promiscuous and Specific Inhibitors of Cruzain (without detergent). purified cruzain, Z-FR-AMC fluorescence, no detergent. Potency, µM, inactives show max response, negative = inhibition, hits mostly inhibitors. AID 1476, 2009. 2.3% of 200,000 active; active = well fitted curve in the direction sought with a large enough effect; inconclusive = small, poorly fitted or top-dose-only effect, or another doubt; inactive = no such curve, though single readings can be large; an effect the other way counts as inactive or inconclusive;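 also: plate controls were enzyme without inhibitor for no effect and buffer without enzyme for full effect; nearly all actives have a fitted effect of over 40% in size; top concentration of the series not given in the record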
Target sequence (P25779 123-467 limits assumed): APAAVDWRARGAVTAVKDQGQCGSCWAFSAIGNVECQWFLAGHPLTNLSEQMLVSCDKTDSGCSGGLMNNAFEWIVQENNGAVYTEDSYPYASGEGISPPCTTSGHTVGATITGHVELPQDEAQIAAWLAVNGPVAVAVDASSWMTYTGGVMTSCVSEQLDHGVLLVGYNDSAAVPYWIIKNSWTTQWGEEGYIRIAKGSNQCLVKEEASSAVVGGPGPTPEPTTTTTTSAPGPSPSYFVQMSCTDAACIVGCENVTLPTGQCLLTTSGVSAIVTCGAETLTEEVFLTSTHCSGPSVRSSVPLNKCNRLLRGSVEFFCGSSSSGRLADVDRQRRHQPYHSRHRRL
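Purified cruzain at 1.5 nM, pre-incubated 15 min with compound at room temperature in 100 mM sodium acetate pH 5.5, 5 mM DTT, 0.00005% Triton X-100. Reaction started with 2 uM Z-FR-AMC; AMC fluorescence increase over 60 s gives rate.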
2A StopGo: High Throughput Screening for Foot and Mouth Disease Virus Antivirals; Potency, µM (top dose mostly 57.9 µM), for inactives: at the top dose signal change, negative = less light; 1.2% of 410,000 active; AID 1159524, 2015; human cells with a luciferase reporter of 2A StopGo recoding; control for the full effect not named in the record; active = well fitted falling curve with a large enough effect; inconclusive = small, poorly fitted or top-dose-only effect; inactive = no such curve, though single readings can be large or run the other way; tested in HEK293T cells; also: % is scaled to controls: 0 for no effect and ±100 for the full control effect; nearly all actives have a fitted effect of over 45% in size; luciferase light after 4 h
LASV entry inh: qHTS for Inhibitors of binding or entry into cells for Lassa Virus; Lassa virus pseudotype entry inhibition, cell reporter; control for the full effect not named in the record; Potency, µM (titrated, usually from 37.9 µM), inactives show at the highest dose activity change, negative = inhibition, usual class: inhibitors; 1.2% of 300,000 active; active means well fitted inhibition curve with a large enough effect; inconclusive means small, poorly fitted or top-dose-only effect, or effect the other way; inactive means flat fitted curve, though single readings scatter; tested in HEK293 cells; also: % is scaled to controls: 0 for no effect and ±100 for the full control effect; nearly all actives have a fitted effect of over 50% in size; luciferase read-out
NS1 function inh: qHTS Assay for Inhibitors of Influenza NS1 Protein Function. S. cerevisiae slowed by influenza A NS1, growth recovery by OD600. Potency, µM (titrated, usually from 46.1 µM), without a hit: top-dose activity, positive = more growth. 0.4% of 270,000 active. AID 2326, 2010; also: actives are rising curves; nearly all actives have a fitted effect of over 50% in size
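Growth recovery, yeast-based: influenza A NS1 expressed in S. cerevisiae causes slow growth, and suppressors are detected by OD600. The parent strain without NS1 is used as positive control.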
RE007 growth inh: qHTS Assay for Inhibitors of the HIV-1 protein Vpr; 0.21% of 360,000 active; Potency, µM (titrated, usually from 92.2 µM), for inactives: at the top dose activity change, negative = less growth; AID 651644, 2012; S. pombe RE007 Vpr strain, BacTiter-Glo ATP luminescence, 24 h; control for the full effect not named in the record; active = well fitted falling curve with a large enough effect; inconclusive = small, poorly fitted or top-dose-only effect; inactive = no such curve, though single readings can be large or run the other way;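 also: % is scaled to controls: 0 for no effect and ±100 for the full control effect; nearly all actives have a fitted effect of over 50% in size; the assay follows cell death caused by Vpr and the record does not say whether a fall means rescue or toxicity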
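Fission yeast RE007 carrying one integrated HIV-1 vpr copy, seeded at OD 0.01 in PMG+AL medium with 23 nL pinned compound. Grown 24 h at 30 degrees; viability read by BacTiter-Glo luminescence after 5 min.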
Marburg entry inh: qHTS for inhibitors of binding or entry into cells for Marburg Virus; Marburg virus pseudotyped entry inhibition, cell reporter; control for the full effect not named in the record; about a third of the inactives were read at about 46 µM; Potency, µM (series often up to 37.8 µM), without a hit: at the top dose activity change, negative = inhibition, most hits filed as inhibitors; 1.8% of 300,000 active; AID 540276, 2011; active = well fitted inhibition curve with a large enough effect; inconclusive = small, poorly fitted or top-dose-only effect, or effect the other way; inactive = flat fitted curve, though single readings scatter; tested in HEK293 cells; about a fifth of its hits are not listed in these tables; also: % is scaled to controls: 0 for no effect and ±100 for the full control effect; luciferase read-out
Cruzain inh Det: qHTS Assay for Promiscuous and Specific Inhibitors of Cruzain (with detergent); Cruzipain (Trypanosoma cruzi), P25779; purified cruzain, Z-FR-AMC fluorescence, 0.01% Triton; Potency, µM, for inactives: max response, negative = inhibition, actives largely listed as inhibitors; 0.43% of 200,000 active; active = well fitted curve in the direction sought with a large enough effect; inconclusive = small, poorly fitted or top-dose-only effect, or another doubt; inactive = no such curve, though single readings can be large; an effect the other way counts as inactive or inconclusive;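 also: plate controls were neutral wells for no effect and buffer without enzyme for full effect; nearly all actives have a fitted effect of over 40% in size; top concentration of the series not given in the record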
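Steps: dispense cruzain (1.5 nM final) in acetate buffer pH 5.5 with DTT and 0.01% Triton X-100; pin-transfer compounds; incubate 15 min RT; add Z-FR-AMC (2 uM final); read fluorescence every 30 s, using the 60 s intensity change.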
SARS PLpro yeast: qHTS of Yeast-based Assay for SARS-CoV PLP; S. cerevisiae expressing SARS-CoV PLpro, growth rescue; control for the full effect not named in the record; Potency, µM (titrated, usually from 32.9 µM), for inactives: at the highest dose activity, positive = growth rescue; 0.19% of 330,000 active; also: 0% is about no effect; nearly all actives have a fitted effect of over 55% in size; growth read by luminescence after 48 h
* marks the source's active call; other numbers are inactive results; ? = inconclusive; . = no result given; [ ] = another dose, or the depositor's remark. Unless noted, calls follow the shape of the dose curve; as a rule, active means well fitted rising curve with a large enough effect; inconclusive means small, poorly fitted or top-dose-only effect; inactive means no such curve, though single readings can be large or run the other way. Potency is read from the fitted curve at half-maximal effect. Hits appear at their usual frequency; about 4.7% have a hit in one of these screens.

SMILES | Cruzain noTriton | 2A StopGo | LASV entry inh | NS1 function inh | RE007 growth inh | Marburg entry inh | Cruzain inh Det | SARS PLpro yeast
COc1cc(/C=N/NC(=O)c2cc(-c3ccco3)nc3ccccc23)cc(OC)c1O | . | -19.6% | . | 8.8% | 5.9% | . | . | -0.7%
COC(=O)[C@@H](NC(=O)/C=C/c1ccc(OC)cc1)C(C)C | . | 38.5%[activator] | 14.7%[46.1 µM] | . | -1.9% | 1.1%[46.1 µM] | . | -6.7%
Cn1c(=O)c2c(nc(SCC(=O)NCC3CCCO3)n2C)n(C)c1=O (centres undefined) | 4.2% | 6.0% | 11.7% | ? | -4.6% | 9.5% | 0.1% | 0.3%
COCCCNC(=O)c1cnc2sc(N3CCCCCC3)nn2c1=O | 2.4% | -10.5% | -3.9%[46.1 µM] | . | . | . | -12.2% | .
COCCn1c(SCC(=O)Nc2nnc(C)s2)nnc1-c1ccoc1C | . | 0.4% | -21.6% | -0.8% | -2.1% | -10.4%[46.1 µM] | . | -1.0%
COC(=O)CC(NC(=S)N1CC2C[C@@H](C1)Cn1c2cccc1=O)C(=O)OC (some centres undefined) | . | -5.5% | . | 3.4% | 3.2% | . | . | 1.7%
Cn1c(=O)c2ccccc2n(CC(=O)N2CCCc3ccccc32)c1=O | . | -7.0% | 2.5% | -0.7% | 2.7% | ? | . | 11.2%
CCCC(=O)NCc1cc(-c2nn(C)c(=O)c3ccccc23)ccc1C | -2.3% | -19.0% | -20.1% | -4.7% | 2.6% | 8.9% | 2.3% | 3.3%
CC1CN(S(=O)(=O)c2ccc(C(=O)N(CCCN(C)C)c3nc4cc5c(cc4s3)OCCO5)cc2)CC(C)O1 (centres undefined) | . | 25.4% | ? | . | 11.6% | -17.5% | . | 3.4%
COc1ccc(C(=O)N/C(=C\c2ccc(SC)cc2)C(=O)NCCCn2ccnc2)cc1OC | . | 10.9% | 4.5% | . | -21.5% | 11.9% | . | -2.4%
COc1ccc(N2CCN(C(=O)c3ccc4c(=O)n(Cc5ccc6c(c5)OCO6)c(=O)[nH]c4c3)CC2)cc1 | . | -20.7% | . | 7.8% | -1.7% | . | . | -1.1%
COc1ccc(CN2CC(=O)N(c3ccccc3OC)C2=S)cc1OC | . | -23.7% | -12.2% | 0.6% | 2.1% | -9.8%[46.1 µM] | . | 0.1%
COc1cc(C(C)=O)ccc1OCC(O)Cn1nc(C)c(C(C)=O)c1C (centres undefined) | . | -9.9% | 18.7%[46.1 µM] | 4.2% | 2.2% | -2.6%[46.1 µM] | . | -0.8%
Cc1ccc(OCCn2cc(/C=C(\C#N)C(=O)NCC3CCCO3)c3ccccc32)cc1 (centres undefined) | 25.3% | -22.7% | -22.2% | ? | -1.7% | ? | -3.5% | 23.8%
COc1ccccc1C(=O)Nc1ccc(S(=O)(=O)Nc2nccs2)cc1 | . | 76.6%[activator] | -13.8% | -9.5% | -14.7% | -1.5%[46.1 µM] | . | -0.3%
COc1ccc(OC)c(CNS(=O)(=O)c2ccc(-c3cc(C(F)(F)F)on3)s2)c1 | 6.4% | 0.0% | 11.8%[46.1 µM] | . | . | . | -10.5% | .
CCOC(=O)c1cnc2ccc(C)cc2c1NCCN1CCOCC1 | . | -21.1% | . | -3.9% | -6.6% | . | . | 1.1%
COc1ccc(S(=O)(=O)Nc2ccc(CC#N)cc2)cc1 | 2.9% | 39.1%[activator] | 6.7% | -3.2% | 15.7% | -28.1%[46.1 µM] | 0.1% | 3.1%
CS(=O)(=O)N1CCC(C(=O)Nc2ccc(C(N)=O)cc2)CC1 | . | -20.3% | . | -0.1% | -11.0% | . | . | -0.2%
C=CCn1c(=O)c2ccccc2n2c(SCC(=O)O)nnc12 | . | 7.5% | 4.0%[46.1 µM] | -1.7% | 16.7% | -3.1%[46.1 µM] | . | -1.9%
Cc1ccc2c(c1)c1c(c(=O)n(-c3ccccc3)c(=O)n1CC(=O)NCCC1=CCCCC1)n2C | -2.4% | 0.6% | 17.5%[46.1 µM] | . | . | . | -1.7% | .
COc1ccc(Cl)cc1C(=O)Nc1ccc(S(N)(=O)=O)cc1 | . | -13.4% | -9.0% | 0.4% | 6.0% | 9.2%[46.1 µM] | . | -0.1%
CCOC(=O)Cn1nc(C)cc1NC(=O)c1cc(OC)c(OC)c(OC)c1 | . | 22.5% | . | 1.9% | 3.0% | . | . | 0.7%
CCOC(=O)c1c(-c2ccc(C)cc2)csc1NC(=O)c1cc(=O)c2cc(C)c(C)cc2o1 | 9.1% | -13.5% | 5.2%[46.1 µM] | . | . | 18.0%[46.1 µM] | -2.1% | .
O=C(CC(c1ccco1)S(=O)(=O)c1ccccc1)c1ccccc1 (centres undefined) | . | 72.0%[activator] | ? | . | -10.0% | -0.2%[46.1 µM] | . | -9.4%
O=C(NCCCCCCNC(=O)c1cccs1)c1cccs1 | . | 3.2% | 0.9% | 6.9% | -7.3% | 12.6%[46.1 µM] | . | 1.1%
Cc1cc(C(=O)N/N=C/c2ccncc2)c2ccccc2n1 | . | -9.1% | -10.0% | 8.7% | 4.5% | -23.2%[46.1 µM] | . | 1.0%
Cc1cc(N2CCN(C)CC2)nc2ccc(NC(=O)CCC(=O)NCCc3ccc(Cl)cc3)cc12 | . | -5.8% | 1.6%[46.1 µM] | 0.2% | -10.7% | -2.6%[46.1 µM] | . | 0.0%
CCn1c(SCC(=O)N/N=C/c2ccc(OC)c(OC)c2)nc2ccccc21 | 0.3% | 0.0% | -14.5% | -1.3% | -2.7% | -15.8% | -4.9% | 5.7%
COCC(=O)N1CCC(Oc2ccc(C(=O)N[C@H](C(=O)OC)C(C)C)cc2)CC1 | . | -9.0% | . | 9.1% | 7.3% | . | . | -1.2%
COc1ccc2oc(=O)c(C(=O)OCc3ccccc3)cc2c1 | . | 35.4%[activator] | . | -9.6% | -5.2% | . | . | -0.7%
O=C(c1ccccc1)N1C(=O)C(c2ccccc2)Oc2ccccc21 (centres undefined) | . | 17.0% | ? | -72.1% | 50.8% | ? | . | 1.5%
Nc1nnc(SCCN2C(=O)c3ccccc3C2=O)s1 | 11.2% | 21.0% | 17.8% | -2.6% | -5.3% | -0.5% | 1.7% | 0.3%
Cc1ccc(C(=O)NC(=S)NNC(=O)c2ccccc2O)cc1 | . | 9.4% | -26.9% | -44.8% | -6.2% | ? | . | 3.7%
Cc1cc(C)cc(NCc2nnc3n2CCCCC3)c1 | -5.5% | -18.7% | -10.5%[46.1 µM] | . | . | . | 1.7% | .
Nc1cc(=O)[nH]c(SCC(=O)NNC(=O)Cc2ccccc2)n1 | . | -11.6% | 1.1% | . | -1.5% | 24.4%[46.1 µM] | . | -1.1%
Cc1c(C(=O)OCCOC(C)C)[nH]c2c1C(=O)CC(c1ccco1)C2 (centres undefined) | -4.1% | 0.0% | ? | -15.2% | -8.2% | ? | -5.6% | -13.5%
COc1ccc(C(=O)Nc2cccc3c2CCCC3)cc1 | . | 0.0% | . | 15.4% | -8.1% | . | . | 7.0%
Cc1cc(NC(=O)CSc2ncc(C(=O)Nc3ccc(F)cc3)c(=O)n2C)no1 | 11.5% | -5.8% | 4.4%[46.1 µM] | . | . | . | 0.7% | .
Cc1ccc(C)c(N2CCN(C(=O)Cn3cnc4onc(-c5ccc(F)cc5)c4c3=O)CC2)c1 | -13.4% | 0.0% | 12.2%[46.1 µM] | . | . | . | -7.4% | .
CC(C)CC(NC(=O)CCC(=O)OCC(=O)[C@@]1(O)CCC2[C@@H]3CCC4=CC(=O)C=C[C@]4(C)C3[C@@H](O)C[C@@]21C)C(=O)O (some centres undefined) | . | 4.3% | . | 0.8% | -5.4% | . | . | 1.8%
CCOc1ccc(C(=O)NCCN2CCCC2)cc1 | . | -2.8% | . | 2.3% | -2.9% | . | . | -1.8%
C=C(C)c1cccc(C(C)(C)NC(=O)NCc2cccnc2)c1 | . | -3.4% | -7.1% | -0.6% | -7.5% | 4.5% | . | -1.2%
Cc1ccc(C2c3sc(=O)[nH]c3SC3C4CC(C5C(=O)N(C(C)C(=O)O)C(=O)C45)C23)cc1 (centres undefined) | 7.8% | -12.5% | 16.3% | ? | 13.3% | ? | 0.2% | 8.8%
COc1ccc(-c2nnc(NC(=O)C3CCCN3S(=O)(=O)c3cccs3)o2)cc1 (centres undefined) | . | -1.3% | 4.1% | . | -12.7% | 5.4% | . | -12.0%
OC1O[C@H](c2ccc3c(c2)OCO3)[C@H]2CO[C@H](c3ccc4c(c3)OCO4)[C@@H]12 (some centres undefined) | . | 29.4% | . | -7.0% | 3.2% | . | . | -1.2%
COc1ccc(S(=O)(=O)N(Cc2nc(-c3ccccc3)no2)C2CCCCC2)cc1 | -10.2% | 11.9% | -14.5%[46.1 µM] | . | . | 11.8%[46.1 µM] | -5.3% | .
CCCn1cc(C(=O)OCC)c(=O)c2cc(F)c(F)cc21 | . | -6.5% | 9.7% | -1.6% | 0.3% | ? | . | 1.7%
CC(NS(=O)(=O)c1cccc(Cl)c1)C(=O)Nc1ccc(-c2nc3ccccc3s2)cc1 (centres undefined) | -12.2% | ? | -14.0% | 8.7% | 6.2% | ? | -3.2% | -1.4%
O=C(Cn1c(C(F)(F)F)nc2ccccc21)N1CCCC1 | 6.2% | 5.3% | ? | 14.3% | -10.0% | 0.0% | 1.6% | -0.7%
Cc1ccc(C)c(N2CCN(c3nnnn3-c3ccccc3)CC2)c1 | 0.1% | ? | ? | -49.3% | 4.4% | ? | -2.2% | -14.9%
